# Assay outcomes deposited in PubChem by Sanford-Burnham Center for Chemical Genomics.
# TIM10 inh – growth inhibitors of TIM10 yeast strain; S. cerevisiae TIM10 strain growth, BacTiter-Glo luminescence, 24 h; inhibition, % at 10 µM; hit rate 1.4% among 330,000; AID 463195;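 active = inhibition of 40% or more at the single tested concentration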;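 note: wild-type TIM10 isogenic control strain grown at permissive 25 °C; 0% = DMSO yeast wells and 100% = minimal medium wells without yeast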
# APJ antagonist – APJ receptor antagonism. CHO-K1 APJ beta-arrestin complementation, luminescence. inhibition, % at 20 µM. AID 2521. hit rate 0.32% among 330,000;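 active = inhibition above about 40% at 20 µM, limit read from the data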;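 note: cells challenged with 10 nM apelin-13 agonist together with compound; plate controls were apelin-13 plus DMSO wells for no effect and DMSO wells lacking apelin-13 for full effect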
# Target sequence (P35414 whole entry, looked up): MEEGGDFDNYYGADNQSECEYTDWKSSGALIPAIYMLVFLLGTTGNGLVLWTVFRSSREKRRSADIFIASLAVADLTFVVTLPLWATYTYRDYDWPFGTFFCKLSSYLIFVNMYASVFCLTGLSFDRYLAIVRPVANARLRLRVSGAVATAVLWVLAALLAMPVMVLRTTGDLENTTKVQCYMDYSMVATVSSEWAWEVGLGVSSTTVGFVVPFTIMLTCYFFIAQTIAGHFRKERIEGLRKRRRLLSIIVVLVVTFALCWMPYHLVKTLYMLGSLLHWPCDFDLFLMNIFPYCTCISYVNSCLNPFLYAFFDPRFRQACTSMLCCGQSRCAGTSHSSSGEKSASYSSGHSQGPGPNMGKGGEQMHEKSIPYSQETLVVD
# beta cell repl – inducers of beta-cell replication in MIN6 cells | MIN6 cells proliferation, ATPlite luminescence, 48 h; cells starved in 0.2% serum; 100% = growth in 10% serum | proliferation, % at 10 µM | hit rate 0.29% among 330,000;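 active = compounds whose signal lies at least 3.5 SD above the mean of all wells on their plate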;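 note: 0% = DMSO-treated cells in low-serum medium and 100% = 10% serum control; some compounds called inactive have numbers as strong as hits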
# tim23-1 inh – tim23-1 yeast growth inhibition | S. cerevisiae tim23-1 growth, BacTiter-Glo luminescence, 24 h | inhibition, % at 20 µM | hit rate 1.3% among 330,000;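 active = growth inhibition of the mutant yeast at or above 50%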;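 note: temperature-sensitive mutant grown at 25 °C; plate controls were DMSO-treated mutant yeast for no effect and medium wells lacking yeast for full effect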
# NLRP3 yeast inh – blocks the NALP3 inflammasome reconstituted in yeast. Yeast reconstituted NLRP3/ASC/caspase-1, beta-gal luminescence, 24 h. inhibition, % at 10 µM. hit rate 0.39% among 330,000;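 active = inhibition of 50% or more; inactive = inhibition below 50%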;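 note: plate controls were induced DMSO wells for no effect and uninduced yeast grown without galactose for full effect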
# NR3A LBD binder – modulators (binders) of human NR3A ligand-binding domain | NR3A LBD differential scanning fluorimetry, Tm shift; 0% = protein alone, 100% = glycine-bound protein | Tm shift relative to glycine control, % at 25 µM | hit rate 2.5% among 340,000;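 active = melting temperature shift of at least 10% of the positive control shift, at one fixed dose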
# APJ ag – APJ receptor agonism. P35414. CHO-K1 APJ PathHunter beta-arrestin, luminescence; 0% DMSO wells, 100% apelin. activation, % at 20 µM. hit rate 0.11% among 330,000;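 active = activation more than six SD over the plate average, tested at 20 µM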;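 note: 0% = DMSO alone and 100% = apelin-13 at 10 nM; some results filed as inactive read as strong as hits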
#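 Incubation: overnight seeding, 90 min compound at 25 °C, 1 h detection; test system: PathHunter CHO-K1 APJ (AGTRL-1) beta-arrestin reporter cells; amount: 1000 cells/well; doses: one dose, 20 µM compound, 1% DMSO; measured by: beta-gal luminescence; measure: agonist-driven arrestin binding to APJ; benchmarks: negative DMSO alone, positive Apelin-13 at 10 nM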
# tim10-1 inh – tim10-1 yeast growth inhibition. S. cerevisiae tim10-1 ts strain growth, BacTiter-Glo, 24 h. inhibition, % at 20 µM. hit rate 2.2% among 330,000. AID 463190;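 active = inhibition of at least 40%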;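 note: mutant grown at 25 °C; 0% = DMSO wells with yeast and 100% = wells holding no yeast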
# The depositor's hits bear a star; x = not tested or not shown. The list is partial; the hit share may differ from the screen's.
entry | SMILES | TIM10 inh | APJ antagonist | beta cell repl | tim23-1 inh
1 | CCCC1CC(C(=O)NC(C(C)Cl)C2OC(SC)C(O)C(O)C2O)N(C)C1 (stereo not given) | -9 | 7 | 1 | 3
2 | CC(C)Sc1nc(O)c(Cc2ccccc2)c(=O)[nH]1 | 6 | -17 | -2 | 13
3 | CC(C)OCCCn1c(=S)[nH]c2ccc(N3CCOCC3)cc2c1=O | 15 | -13 | -1 | 7
4 | CC(NC(=O)COC(=O)c1ccccc1SCC(=O)N1CCCC1)c1ccccc1 (stereo not given) | -4 | 17 | 3 | 20
5 | O=C(NCc1ccncc1)C(=O)NCC1OCCN1S(=O)(=O)c1ccc(F)cc1 (stereo not given) | 7 | -8 | 5 | 0
6 | CCCc1cc(=O)[nH]c(=S)[nH]1 | 4 | 7 | 2 | -6
7 | CCOc1ccc(S(=O)(=O)Nc2ccc(C(=O)N3CCC3)cc2)cc1 | 7 | -45 | -2 | 11
8 | C[C@H]1C[C@H]2[C@@H]3CCC4=CC(=O)C=C[C@]4(C)[C@@]3(F)[C@@H](O)C[C@]2(C)[C@@]1(O)C(=O)CO | 8 | 3 | 1 | 5
9 | CCOc1cc(C2C(C(=O)OC(C)C)=C(C)N=C3SCCC(=O)N32)ccc1OC(C)=O (stereo not given) | 22 | 4 | 0 | 15
10 | Cc1ccc(N(Cc2ccccc2)C(=O)c2cc(S(=O)(=O)N3CCOCC3)ccc2Cl)cc1 | 13 | 11 | -5 | 18

entry | NLRP3 yeast inh | NR3A LBD binder | APJ ag | tim10-1 inh
1 | 18 | 0 | -4 | -6
2 | -3 | -4 | -2 | 9
3 | 7 | 1 | 2 | 45*
4 | 19 | 1 | 16 | 6
5 | -4 | -1 | -6 | 3
6 | 14 | 1 | -1 | -1
7 | 21 | 0 | 3 | -5
8 | 20 | 0 | -3 | -3
9 | -3 | 0 | 2 | 24
10 | 17 | 2 | -3 | 19

# Part of the list above with just NR3A LBD binder, NLRP3 yeast inh and TIM10 inh.
nr | structure | NR3A LBD binder | NLRP3 yeast inh | TIM10 inh
5 | O=C(NCc1ccncc1)C(=O)NCC1OCCN1S(=O)(=O)c1ccc(F)cc1 (stereo not given) | -1 | -4 | 7
6 | CCCc1cc(=O)[nH]c(=S)[nH]1 | 1 | 14 | 4
7 | CCOc1ccc(S(=O)(=O)Nc2ccc(C(=O)N3CCC3)cc2)cc1 | 0 | 21 | 7
8 | C[C@H]1C[C@H]2[C@@H]3CCC4=CC(=O)C=C[C@]4(C)[C@@]3(F)[C@@H](O)C[C@]2(C)[C@@]1(O)C(=O)CO | 0 | 20 | 8

# Six compounds picked at random from the list so far:
entry | SMILES | TIM10 inh | APJ antagonist | beta cell repl | tim23-1 inh
8 | C[C@H]1C[C@H]2[C@@H]3CCC4=CC(=O)C=C[C@]4(C)[C@@]3(F)[C@@H](O)C[C@]2(C)[C@@]1(O)C(=O)CO | 8 | 3 | 1 | 5
7 | CCOc1ccc(S(=O)(=O)Nc2ccc(C(=O)N3CCC3)cc2)cc1 | 7 | -45 | -2 | 11
5 | O=C(NCc1ccncc1)C(=O)NCC1OCCN1S(=O)(=O)c1ccc(F)cc1 (stereo not given) | 7 | -8 | 5 | 0
4 | CC(NC(=O)COC(=O)c1ccccc1SCC(=O)N1CCCC1)c1ccccc1 (stereo not given) | -4 | 17 | 3 | 20
10 | Cc1ccc(N(Cc2ccccc2)C(=O)c2cc(S(=O)(=O)N3CCOCC3)ccc2Cl)cc1 | 13 | 11 | -5 | 18
3 | CC(C)OCCCn1c(=S)[nH]c2ccc(N3CCOCC3)cc2c1=O | 15 | -13 | -1 | 7

entry | NLRP3 yeast inh | NR3A LBD binder | APJ ag | tim10-1 inh
8 | 20 | 0 | -3 | -3
7 | 21 | 0 | 3 | -5
5 | -4 | -1 | -6 | 3
4 | 19 | 1 | 16 | 6
10 | 17 | 2 | -3 | 19
3 | 7 | 1 | 2 | 45*

# More results:
entry | SMILES | TIM10 inh | APJ antagonist | beta cell repl | tim23-1 inh
11 | Cc1cc(C(=O)COC(=O)c2ccc(O)cc2)c(C)n1Cc1ccco1 | 11 | 8 | -2 | 31
12 | Cc1ccc(-c2cc(C(=O)N3N=C(C(F)F)CC3(O)C(F)F)c3ccccc3n2)cc1C (stereo not given) | 27 | -16 | -6 | 52*
13 | O=C1N=C(O)CN1/N=C/c1ccc(-c2ccc([N+](=O)[O-])cc2)o1 | 5 | 11 | -4 | -12
14 | C=CCOc1ccc(C2NC(=S)NC(C)=C2C(=O)c2ccccc2)cc1OC (stereo not given) | 2 | 3 | 0 | 11
15 | COc1ccc(NC(=O)CN(C)C(=O)c2ccc(S(=O)(=O)Nc3ccccc3F)cc2)cc1 | -3 | 13 | 3 | -3
16 | COc1ccc(/C(C)=N/NC(=O)c2ccncc2)cc1 | 0 | -2 | -2 | 12
17 | O=C(O)C(Cc1cc(Cl)ccc1Cl)Sc1nc2ccccc2[nH]1 (stereo not given) | 9 | -6 | -2 | 10
18 | CCN(C(=O)CSc1nnc(Cc2cccc3ccccc23)n1N)C1CCS(=O)(=O)C1 (stereo not given) | -3 | 11 | 2 | -7
19 | CCN(CC)S(=O)(=O)c1cccc(C(=O)Nc2ccc(Cl)cn2)c1 | 13 | -22 | 0 | 15
20 | CCSc1ncccc1-c1nc2ccccc2[nH]1 | 43* | -7 | -3 | 39

entry | NLRP3 yeast inh | NR3A LBD binder | APJ ag | tim10-1 inh
11 | 9 | 4 | -2 | 16
12 | 21 | 35* | -5 | 50*
13 | 21 | -2 | 3 | 9
14 | 9 | -1 | 0 | 14
15 | 19 | 0 | -4 | 0
16 | 1 | -4 | -3 | 4
17 | -5 | 0 | -1 | 5
18 | 19 | -1 | -4 | 1
19 | -8 | 5 | 1 | 20
20 | 4 | -3 | -9 | 15

# More results:
entry | SMILES | TIM10 inh | APJ antagonist | beta cell repl | tim23-1 inh
21 | COC(=O)c1ccccc1NC(=S)NC(=O)COc1ccc(C)cc1 | 9 | 16 | -2 | 3
22 | CS(=O)(=O)Nc1nc2n(n1)C(c1ccccc1)CC(c1ccccc1)N2 (stereo not given) | -9 | 2 | 0 | -3
23 | O=C(O)COc1ccc(/C=N/Nc2nc(Nc3ccccc3)nc(N3CCCCC3)n2)cc1 | 19 | 13 | -1 | 17
24 | O=C(CCSCCc1ccncc1)NCCCN1CCOCC1 | 3 | -4 | -1 | 6
25 | O=C(Nc1ccncc1)c1ccc(-c2ccccc2)cc1 | -27 | -27 | -7 | 22
26 | CCCCn1c(N)c(N(C)C(=O)c2cc3c(F)cccc3s2)c(=O)[nH]c1=O | 12 | 1 | -3 | 48
27 | Cc1ccc2c(c1)c(Sc1ccccc1)c(CC(=O)O)n2C | 7 | 17 | 0 | 18
28 | COc1ccc(Cl)cc1NC(=O)c1cc(S(=O)(=O)N2CCCC2)cn1C | 10 | 10 | -1 | 3
29 | O=C(c1ccccc1)C(O)(CN1CCCCC1)c1ccccc1 (stereo not given) | x | x | x | x
30 | Cc1ccc(C)c(S(=O)(=O)NC(C)CCc2ccccc2)c1 (stereo not given) | -20 | -4 | 0 | 26

entry | NLRP3 yeast inh | NR3A LBD binder | APJ ag | tim10-1 inh
21 | 12 | -1 | -1 | -2
22 | 10 | 0 | 2 | 0
23 | 6 | -4 | -1 | 29
24 | 14 | 1 | -2 | 5
25 | 39 | 4 | 5 | -19
26 | 13 | -1 | -3 | 14
27 | 18 | 1 | -1 | 15
28 | -3 | 5 | -4 | -2
29 | x | 3 | x | x
30 | 16 | -2 | -5 | 20

# Single records, from the list above:
# O=C(Nc1ccncc1)c1ccc(-c2ccccc2)cc1 as listed: TIM10 inh = -27; APJ antagonist = -27; beta cell repl = -7; tim23-1 inh = 22; NLRP3 yeast inh = 39; NR3A LBD binder = 4; APJ ag = 5; tim10-1 inh = -19
# COC(=O)c1ccccc1NC(=S)NC(=O)COc1ccc(C)cc1 as listed: TIM10 inh = 9; APJ antagonist = 16; beta cell repl = -2; tim23-1 inh = 3; NLRP3 yeast inh = 12; NR3A LBD binder = -1; APJ ag = -1; tim10-1 inh = -2

# Continued.
entry | SMILES | TIM10 inh | APJ antagonist | beta cell repl | tim23-1 inh
31 | COc1ccc(C(=O)OCC(=O)NC(C)(C)C)cc1[N+](=O)[O-] | 4 | 17 | -1 | 9
32 | CCOc1ccc(Cl)cc1/C=N/O | -12 | 25 | -2 | -7
33 | NCCOc1ccc(C2CCCCC2)cc1 | 0 | -9 | -5 | 1
34 | CCN(CC)S(=O)(=O)c1cc(NS(=O)(=O)c2cccc(Cl)c2)ccc1C | 4 | 10 | 0 | 16
35 | Cc1ccc(Cn2c(SCC(=O)NCC3CCCO3)nc3c(sc4ccccc43)c2=O)cc1 (stereo not given) | -6 | 7 | 2 | 0
36 | Cc1cccc(N/N=C(\C(N)=O)C2=NC(C)(C)Cc3ccccc32)c1 | -3 | -19 | -6 | 35
37 | CCOc1cccc2sc(N(CCCN(C)C)C(=O)c3ccc(S(=O)(=O)N(CC)Cc4ccccc4)cc3)nc12 | -2 | -44 | -7 | 5
38 | O=C1CC2(CCCC2)CC(=O)N1CCCCN1CCN(c2ncccn2)CC1 | 3 | 11 | -1 | -7
39 | O=C1N(c2ccc3c(c2)OCCO3)C(c2ccccc2)C1(F)F (stereo not given) | -2 | 7 | 0 | 5
40 | CC(C)(C)[C@]1(O)CCN2C[C@H]3c4ccccc4CCc4cccc(c43)[C@@H]2C1 | 6 | 19 | -7 | 21

entry | NLRP3 yeast inh | NR3A LBD binder | APJ ag | tim10-1 inh
31 | 13 | -1 | 0 | 11
32 | 13 | 4 | -4 | -5
33 | 29 | 0 | 1 | 8
34 | 5 | -10 | 1 | 31
35 | 4 | -1 | -2 | 4
36 | 26 | -1 | -4 | -28
37 | 24 | -3 | 8 | 9
38 | -12 | -2 | -4 | -9
39 | 2 | 1 | 0 | 26
40 | 25 | -1 | -2 | 23

# Next part.
entry | SMILES | TIM10 inh | APJ antagonist | beta cell repl | tim23-1 inh
41 | Cc1ccc(C)c(N2N=C(C(=O)NCCN3C(=O)S/C(=C\c4cccnc4)C3=O)CCC2=O)c1 | 25 | 1 | -3 | 27
42 | COCCNC(=O)[C@H]1N2C(=O)c3ccccc3C2SC1(C)C (stereo not given in full) | -1 | -11 | 0 | 20
43 | Cn1ncc(Br)c1C(=O)O | 3 | 11 | -3 | 0
44 | Cc1ccc(-c2csc3ncn(CC(=O)OC(C)C)c(=O)c23)cc1 | 3 | 8 | 0 | 33
45 | Cc1cc(=O)[nH]c(/N=C(\N)Nc2ccc(Oc3ccccc3)cc2)n1 | -14 | -24 | -4 | 2
46 | C#C[C@]1(O)CCC2C3CCC4=Cc5oncc5CC4(C)C3CCC21C (stereo not given in full) | -29 | -8 | -8 | 49
47 | COc1cc(OC)c(OC)cc1CN(C)C(c1ccccc1)c1nnnn1-c1ccccc1C (stereo not given) | -2 | 5 | -3 | 36
48 | CC(C)(C)C1CCC2(CC1)C(C#N)=C(SCC(=O)Nc1ccccc1)NC(=O)C2C#N (stereo not given) | 11 | 8 | -5 | 41

entry | NLRP3 yeast inh | NR3A LBD binder | APJ ag | tim10-1 inh
41 | 4 | -1 | 15 | 24
42 | 13 | 1 | 0 | 21
43 | 17 | 0 | 0 | 16
44 | 40 | -1 | -1 | 4
45 | -1 | -1 | -1 | 3
46 | -24 | 9 | 2 | 19
47 | 25 | -1 | 1 | 38
48 | 1 | 21* | -2 | 40
